# High-throughput results as filed in PubChem.
# HIV Env fusion: HIV envelope-mediated fusion inhibition. hit rate 1.1% among 360,000. HeLa-JRFL Env/CEM21 cell fusion, luciferase. inhibition, % at 12.3 µM. AID 651610;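 active = mean replicate inhibition score of at least 50 and every replicate individually at or above 50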;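 note: 0% = plate neutral controls and 100% = maraviroc near 300 nM; one replicate is shown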
# Active calls of the source: *; & = joins results of further samples; [ ] = dose if it differs, or a comment. Not all compounds are listed; the hit share may differ from the screen's.
SMILES,HIV Env fusion
CO[C@@H]1CC[C@@H]2CCN(C)C(=O)[C@@H](C)CN(C)C(=O)c3cc(C#N)ccc3OC[C@@H]1O2,-10[16.7 µM]
COc1cccc(-c2ccc3n(c2=O)C[C@H]2[C@H](CO)[C@@H](C(=O)NCC4CC4)[C@@H]3N2S(C)(=O)=O)c1,16[16.7 µM]
O=C(C[C@@H]1C[C@@H]2c3cc(NC(=O)c4ccc5c(c4)OCO5)ccc3O[C@@H]2[C@@H](CO)O1)NCc1ccc(Oc2ccccc2)cc1,71*[16.7 µM]
CC(C)(C)OC(=O)N1CCC2CCN(S(=O)(=O)c3ccccc3)CC21 (configuration not stated),-4
CCCN1C[C@H](C)[C@@H](OC)CN(C)C(=O)c2cc(NC(=O)c3cnccn3)ccc2OC[C@H]1C,-7[16.7 µM]
C[C@H]1CN([C@@H](C)CO)C(=O)CCCn2cc(nn2)CO[C@H]1CN(C)Cc1ccccc1,-17[16.7 µM]
CNC(=O)C[C@@H]1CC[C@H]2[C@H](COc3ccc(NC(=O)c4cc(F)cc(F)c4)cc3C(=O)N2C)O1,0[16.7 µM]
C=CCN1C=C(C(=O)OCC)C(=O)CC1,-8
Cn1cnc(S(=O)(=O)N2C[C@@H](O)COC[C@@H]3O[C@H](CC(=O)NCc4cccc(F)c4)CC[C@H]32)c1,-1[16.7 µM]
CO[C@H](C(=O)N(C)C[C@@H]1OCc2ccccc2-c2ccccc2C(=O)N([C@@H](C)CO)C[C@@H]1C)c1ccccc1,29[16.7 µM]
CN(C(=O)COC(=O)/C=C/c1ccccc1)C1CCS(=O)(=O)C1 (configuration not stated),1
CC=Cc1ccc2n(c1=O)C[C@@H]1[C@@H](CO)[C@H](C(=O)NCc3ccncn3)N(C(=O)NC3CCCC3)[C@H]21 (mixture of isomers),35[16.7 µM]
C[C@H]1CN([C@@H](C)CO)C(=O)Cc2cc(NS(=O)(=O)c3ccc(Cl)cc3)ccc2O[C@H]1CN(C)S(=O)(=O)c1ccc(F)cc1,15[16.7 µM]
Cc1ccccc1S(=O)(=O)N1[C@@H](C#N)[C@H](c2ccc(C#CC3CCCC3)cc2)[C@@H]1CO,55[16.7 µM]
CC(C)NC(=O)N(C)C[C@H]1OCCCC[C@@H](C)Oc2ccc(NC(=O)CCC(F)(F)F)cc2C(=O)N([C@@H](C)CO)C[C@@H]1C,-23[16.7 µM]
CO[C@H]1CN(C)C(=O)c2cc(NC(=O)C3CCCCC3)ccc2OC[C@@H](C)N(Cc2nccs2)C[C@@H]1C,-9[16.7 µM]
CNC[C@@H]1OCCCC[C@H](C)Oc2ccc(NC(=O)Nc3ccc(F)cc3)cc2C(=O)N([C@H](C)CO)C[C@H]1C,1[16.7 µM]
COc1ccc(S(=O)(=O)N(C)C[C@@H]2Oc3c(cccc3N(C)C)C(=O)N([C@H](C)CO)C[C@H]2C)cc1,13[16.7 µM]
CNC(=O)C[C@H]1CC[C@@H]2[C@H](COc3ccc(NC(=O)c4cc(F)cc(F)c4)cc3C(=O)N2C)O1,-19[16.7 µM]
COCC(=O)N1C[C@H](C)[C@@H](OC)CN(C)C(=O)c2cc(NC(=O)Nc3cccc(F)c3)ccc2OC[C@H]1C,13[16.7 µM]
C[C@H](CO)N1C[C@H](C)[C@H](CN(C)C(=O)C2CC2)Oc2ncc(-c3cccc(F)c3)cc2C1=O,11[16.7 µM]
CN1C(=O)c2cc(NC(=O)Nc3ccccc3Cl)ccc2OC[C@@H]2O[C@@H](CC(=O)NCCCN3CCOCC3)CC[C@H]21,-1[16.7 µM]
CCC(=O)Nc1ccc2c(c1)OC[C@H](C)N(CC1CCCCC1)C[C@H](C)[C@@H](OC)CN(C)C2=O,87*[16.7 µM]
CN1C(=O)c2cc(NC(=O)Nc3ccccc3F)ccc2OC[C@H]2O[C@@H](CC(=O)NCCc3ccncc3)CC[C@@H]21,-7[16.7 µM]
O=C(C[C@H]1CC[C@@H]2[C@H](COC[C@H](O)CN2S(=O)(=O)c2cccc(Cl)c2)O1)N1CCCCC1,11[16.7 µM]

# Next results
SMILES,HIV Env fusion
NC(=O)[C@@H]1CCCN1C(=O)[C@@H](Cc1ccccc1)NC(=O)[C@H]1O[C@@H](n2ccc(=O)[nH]c2=O)[C@H](O)[C@@H]1O,-2
C[C@H](NC(=O)C[C@H]1C[C@@H]2c3cc(NS(=O)(=O)c4ccc(F)cc4)ccc3O[C@@H]2[C@H](CO)O1)c1ccccc1,-11[16.7 µM]
O=C(C[C@H]1C[C@H]2c3cc(NC(=O)C4CCOCC4)ccc3O[C@H]2[C@@H](CO)O1)NCCN1CCCCC1,-3[16.7 µM]
CCCNC(=O)N1C[C@@H](O)COC[C@@H]2O[C@H](CC(=O)N3CCN(C)CC3)CC[C@H]21,-5[16.7 µM]
CN(C)c1ccc2c(c1)[C@@H]1C[C@@H](CC(=O)NCCc3ccccc3)O[C@H](CO)[C@@H]1O2,-22[16.7 µM]
C[C@H]1CN([C@@H](C)CO)S(=O)(=O)c2ccc(C3=CCCC3)cc2O[C@H]1CN(C)C(=O)c1ccc(F)cc1,-7[16.7 µM]
COc1ccc2c3c(n(C)c2c1)[C@@H](CO)N(C(=O)CN1CCOCC1)CC31CN(C(=O)CC2CC2)C1,7[16.7 µM]
O=C(C(=O)N1CCN(C(=O)Cc2ccccc2)CC1)c1cccc(C(F)(F)F)c1,-6
Cc1ccc2nc(-c3ccc(F)cc3)c(Cc3cccc(F)c3)n2c1,14
COC(=O)C1=C(C)N(C)C(=NCc2ccc(OC)cc2)NC1c1cccc(C(F)(F)F)c1 (configuration not stated),7
Cc1noc(C)c1NC(=O)Nc1ccc2c(c1)C(=O)N([C@@H](C)CO)C[C@@H](C)[C@@H](CN(C)Cc1ccc(Cl)c(Cl)c1)O2,-17[16.7 µM]
Cc1[nH]nc2c1C(c1ccc(F)cc1)N(Cc1ccccc1)C2=O (configuration not stated),21
COCC(=O)Nc1ccc2c(c1)[C@H]1C[C@H](CC(=O)N3CCOCC3)O[C@@H](CO)[C@H]1O2,-10[16.7 µM]
CCO[C@H]1OC(C(=O)NCc2nc3ccccc3[nH]2)=C[C@@H](c2coc3ccccc3c2=O)[C@@H]1CCCO,11[16.7 µM]
COc1ccc(S(=O)(=O)N(C)C[C@H]2Oc3ccc(NC(=O)Nc4cccc5ccccc45)cc3CC(=O)N([C@@H](C)CO)C[C@@H]2C)cc1,-1[16.7 µM]
Cc1noc(C)c1NC(=O)N(C)C[C@@H]1OCc2ccccc2-c2ccccc2C(=O)N([C@@H](C)CO)C[C@H]1C,-7[16.7 µM]
C[C@H]1CN([C@@H](C)CO)S(=O)(=O)c2ccc(C#CC3CC3)cc2O[C@H]1CN(C)C(=O)Nc1cc(F)ccc1F,-10[16.7 µM]
O=C(CC1CCCC1)N[C@H](C(=O)N1CCC[C@H]1C(=O)NCc1ccccc1)c1ccccc1,6
C[C@H]1CN([C@@H](C)CO)C(=O)c2ccccc2-c2ccccc2CO[C@H]1CN(C)C(=O)Nc1ccc2c(c1)OCO2,-14[16.7 µM]
C[C@H]1CN([C@@H](C)CO)C(=O)c2cccc(NS(=O)(=O)c3ccc(Cl)cc3)c2O[C@@H]1CN(C)S(=O)(=O)c1cn(C)cn1,-18[16.7 µM]
COCC(=O)Nc1ccc2c(c1)OC[C@H](C)N(C(=O)NC(C)C)C[C@@H](C)[C@@H](OC)CN(C)C2=O,-11[16.7 µM]
COCCNC(=O)c1cc2c(c(-c3cccc(C4=CCCC4)c3)n1)[C@@H](CCO)N([S@](=O)C(C)(C)C)C2,1[16.7 µM]
O=C([C@@H]1N[C@@H]2c3ccc(C4=CCCCC4)c(=O)n3C[C@@H]2[C@H]1CO)N1CCC(Cc2ccccc2)CC1,-20[16.7 µM]
Cc1ccc2c(=O)n3c(nc2c1)C(Cc1ccccc1)NC(=O)c1cc(Cl)ccc1-3 (configuration not stated),0
C[C@@H]1CCCCO[C@@H](CN(C)C(=O)CCC(F)(F)F)[C@@H](C)CN([C@H](C)CO)C(=O)c2cc(NS(=O)(=O)c3ccc(Cl)cc3)ccc2O1,3[16.7 µM]

# The list continues:
SMILES,HIV Env fusion
CO[C@@H]1CN(C)C(=O)c2cc(NS(C)(=O)=O)ccc2OC[C@H](C)N(C(=O)NC(C)C)C[C@H]1C,-8[16.7 µM]
COc1cccc(CNC(=O)C[C@H]2CC[C@H]3[C@H](COc4ccc(NS(=O)(=O)c5ccccc5F)cc4C(=O)N3C)O2)c1,-10[16.7 µM]
Clc1cccc2c1C1CC2CCN1Cc1ccccc1 (configuration not stated),16
CO[C@H]1CN(C)C(=O)c2ccc(NC(=O)c3nc4ccccc4s3)cc2OC[C@@H](C)NC[C@@H]1C,-7[16.7 µM]
O=C(NC1CCCC1)N1CC(=O)N2[C@H](CO)[C@H](c3ccc(-c4ccncc4)cc3)[C@@H]2C1,-21[16.7 µM]
CO[C@H]1CN(C)C(=O)c2cc(NC(=O)Nc3ccccc3)ccc2OC[C@@H](C)N(C(=O)CC2CC2)C[C@H]1C,16[16.7 µM]
O=C1CCCCC1CCS(=O)(=O)NCc1ccccc1 (configuration not stated),-33
COC(=O)C[C@@H]1CC[C@H]2[C@@H](COC[C@@H](O)CN2S(=O)(=O)c2cn(C)cn2)O1,22[16.7 µM]
O=C1N[C@@H](c2ccccc2)COCn2nncc2CC[C@@H]1Cc1ccccc1,-29[16.7 µM]
O=C(NCC1CCCCC1)[C@@H]1[C@@H](CO)[C@@H]2Cn3c(cccc3=O)[C@H]1N2C(=O)c1cccnc1,9[16.7 µM]
O=C(C[C@H]1CC[C@@H]2[C@H](COC[C@@H](O)CN2C(=O)c2ccncc2)O1)NC1CCC1,-22[16.7 µM]
COc1ccccc1-c1ccc2c(c1)[C@@H]1[C@@H](CCN1C(=O)C1CCC1)[C@H](CO)N2,-16[16.7 µM]
CCCNC(=O)N[C@H]1C=C[C@@H](CC(=O)NCCc2ccccc2)O[C@H]1CO,-8[16.7 µM]
CN1C(=O)c2cc(NC(=O)c3cccc(F)c3)ccc2OC[C@H]2O[C@H](CC(=O)NCC3CCCCC3)CC[C@@H]21,25&11[16.7 µM]
C[C@H](O)[C@@H]1CN2CCc3c([nH]c4c(-c5ccccc5)cccc34)[C@@H]2C[C@@H]1N(C)C(=O)Nc1ccccc1,-3
COCC1CN(CCc2ccc(F)cc2)S(=O)(=O)c2c(F)cccc2O1 (configuration not stated),-8
COC(=O)c1cc2c(c3c4cc(OC)ccc4n(S(=O)(=O)c4ccccc4)c13)C(=O)N(Cc1ccc(C(F)(F)F)cc1)C2,96*
CO[C@@H]1CN(C)C(=O)c2cc(NC(=O)c3nc4ccccc4s3)ccc2OC[C@@H](C)N(Cc2cncnc2)C[C@@H]1C,-2[16.7 µM]
C[C@H](CO)N1C[C@H](C)[C@H](CN(C)Cc2ccc3c(c2)OCCN3C)OCc2ccccc2-c2ccccc2C1=O,15[16.7 µM]
CO[C@H]1CN(C)C(=O)c2ccc(NC(=O)c3cnccn3)cc2OC[C@H](C)N(C)C[C@H]1C,-12[16.7 µM]
CNC[C@H]1Oc2c(NC(=O)NC3CCCCC3)cccc2C(=O)N([C@@H](C)CO)C[C@@H]1C,-2[16.7 µM]
CN1C(=O)c2cc(NC(=O)C3CCCCC3)ccc2OC[C@@H]2O[C@@H](CC(=O)NC3CCCC3)CC[C@@H]21,-7[16.7 µM]
C[C@@H]1CN([C@H](C)CO)C(=O)c2cccc(NC(=O)Nc3cccc4ccccc34)c2O[C@@H]1CN(C)Cc1ccc2c(c1)OCO2,-21[16.7 µM]
C[C@@H]1CCCCO[C@H](CN(C)C)[C@@H](C)CN([C@@H](C)CO)C(=O)c2cc(NC(=O)c3ccncc3)ccc2O1,11[16.7 µM]
CC(C)NC(=O)Nc1ccc2c(c1)C(=O)N([C@H](C)CO)C[C@@H](C)[C@@H](CN(C)C(=O)c1ccncc1)OCCCC[C@H](C)O2,2[16.7 µM]
O=C(N[C@@H]1C=C[C@H](CC(=O)N2CCN(c3ccccc3)CC2)O[C@@H]1CO)c1ccncc1,12[16.7 µM]
CN(C)C(=O)c1cccc(-c2ccc([C@@H]3[C@@H](C#N)N(C(=O)C4CCCC4)[C@H]3CO)cc2)c1,-23[16.7 µM]
CN(C)C(=O)[C@H]1N[C@H]2c3ccc(-c4ccc(F)cc4)c(=O)n3C[C@H]2[C@@H]1CO,12[16.7 µM]

# Taken from above, 10 compounds:
SMILES,HIV Env fusion
CO[C@@H]1CN(C)C(=O)c2cc(NS(C)(=O)=O)ccc2OC[C@H](C)N(C(=O)NC(C)C)C[C@H]1C,-8[16.7 µM]
COc1cccc(CNC(=O)C[C@H]2CC[C@H]3[C@H](COc4ccc(NS(=O)(=O)c5ccccc5F)cc4C(=O)N3C)O2)c1,-10[16.7 µM]
Clc1cccc2c1C1CC2CCN1Cc1ccccc1 (configuration not stated),16
CO[C@H]1CN(C)C(=O)c2ccc(NC(=O)c3nc4ccccc4s3)cc2OC[C@@H](C)NC[C@@H]1C,-7[16.7 µM]
O=C(NC1CCCC1)N1CC(=O)N2[C@H](CO)[C@H](c3ccc(-c4ccncc4)cc3)[C@@H]2C1,-21[16.7 µM]
CO[C@H]1CN(C)C(=O)c2cc(NC(=O)Nc3ccccc3)ccc2OC[C@@H](C)N(C(=O)CC2CC2)C[C@H]1C,16[16.7 µM]
O=C1CCCCC1CCS(=O)(=O)NCc1ccccc1 (configuration not stated),-33
COC(=O)C[C@@H]1CC[C@H]2[C@@H](COC[C@@H](O)CN2S(=O)(=O)c2cn(C)cn2)O1,22[16.7 µM]
O=C1N[C@@H](c2ccccc2)COCn2nncc2CC[C@@H]1Cc1ccccc1,-29[16.7 µM]
O=C(NCC1CCCCC1)[C@@H]1[C@@H](CO)[C@@H]2Cn3c(cccc3=O)[C@H]1N2C(=O)c1cccnc1,9[16.7 µM]
